Screens (PubChem BioAssay)
STK33 inh = inhibitors of purified STK33 kinase, primary screen, biochemical, ADP-Glo luminescence, homogeneous, cell-free. Serine/threonine-protein kinase 33 (Homo sapiens), Q9BYT3. inhibition, % at 10 µM. 320,000 tested, 0.073% active. MBP phosphorylation;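 active = inhibition at or above 25%, using the most active replicate where run in duplicate; inactive = inhibition below 25%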
Target sequence (Q9BYT3 whole entry, looked up): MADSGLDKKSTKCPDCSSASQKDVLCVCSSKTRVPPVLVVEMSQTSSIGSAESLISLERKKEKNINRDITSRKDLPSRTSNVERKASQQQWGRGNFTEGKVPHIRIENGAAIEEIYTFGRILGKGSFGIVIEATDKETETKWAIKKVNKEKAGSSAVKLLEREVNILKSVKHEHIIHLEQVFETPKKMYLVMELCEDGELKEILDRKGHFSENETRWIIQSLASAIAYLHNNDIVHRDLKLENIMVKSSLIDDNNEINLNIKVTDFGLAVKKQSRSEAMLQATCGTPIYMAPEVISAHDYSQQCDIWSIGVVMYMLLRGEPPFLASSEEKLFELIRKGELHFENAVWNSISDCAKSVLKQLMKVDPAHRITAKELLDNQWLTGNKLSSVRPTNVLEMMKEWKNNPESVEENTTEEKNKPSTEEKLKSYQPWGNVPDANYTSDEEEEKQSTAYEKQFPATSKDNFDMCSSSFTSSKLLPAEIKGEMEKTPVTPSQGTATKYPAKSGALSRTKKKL
Active calls of the source: *. The list is partial, and most or all hits are left out here.

STK33 inh	molecule
-1.1	CCC(C)NC(=O)Cn1cnc2sc(C)c(S(=O)(=O)N3CCCCC3)c2c1=O (stereo not drawn)
0.2	COc1cc(-c2[nH]ncc2CN(C)Cc2cc(C)[nH]n2)cc(OC)c1OC
-0.9	Cc1ccc(C)c(NC(=O)c2ccccc2NC(=O)C2CCCO2)c1 (stereo not drawn)
-0.2	Cc1cccc(CCN(CC(=O)NCc2ccc(F)cc2)C(=O)c2csnn2)c1
0.5	COc1cc(/C=C(\C#N)C(=O)c2c(C)[nH]c3ccccc23)cc(OC)c1OC
0.3	O=C1CCCC/C=C\C[C@H](CC(=O)N(CCO)Cc2ccccc2)C(=O)NCCO1
-0.2	CCc1c(O)nc(SCc2nc3ccccc3c(=O)[nH]2)[nH]c1=O
-0.4	O=S(=O)([N-]c1nc2ccccc2nc1-[n+]1ccccc1)c1ccccc1
-0.6	CN(C)c1ccc(C(=O)c2ccccc2)cc1
1.1	CCOc1ccc(/C=C2\CCc3ccccc3C2=O)cc1

Carrying on.
STK33 inh	molecule
-0.3	COc1cc(OC)cc(C(=O)N[C@H](C(=O)Nc2cc(C)cc(C)c2)C(C)C)c1
-0.5	Cc1ccc(NC(=O)NC(=O)N(C(C)C)S(C)(=O)=O)nc1
-0.6	COc1ccc(C2NC(=S)NC(C)=C2C(=O)c2ccccc2)cc1OC (stereo not drawn)
0.3	C=CCOC(=O)C(C#N)c1nc2ccccc2nc1N1CCN(c2ccccc2OCC)CC1 (stereo not drawn)
-0.8	COc1ccc(Cc2nc3ccccc3n2CC(=O)N/N=C/c2ccccc2)cc1OC
-0.7	COc1ccc(CCNC(=O)C23CCC(C)(C(=O)O2)C3(C)C)cc1OC (stereo not drawn)
0.1	CCN(CC)S(=O)(=O)c1cccc(-c2nnc(SCC#N)n2Cc2ccccc2)c1
-0.9	CC(C)(C)c1ccc(-n2ncc3c2CCCC3NC(=O)CN2CCOC2=O)cc1 (stereo not drawn)
-1.4	O=C(O)c1ccc(N2C(=O)CC(SC(=Nc3ccccc3)Nc3ccccc3)C2=O)cc1 (stereo not drawn)
-0.4	O=C(O)c1ccc(NS(=O)(=O)c2ccc3c(c2)OCCCO3)cc1

Continued.
STK33 inh	molecule
-1.5	CC1(C)CC(=O)N(c2cc(Cl)cc(Cl)c2)C(=O)C1
-1.5	COc1ccc(OCC(=O)NNC(=O)Cc2coc3cc(OC)ccc23)cc1
-1.1	COc1ccc(C2/C(=C(\O)c3ccc4c(c3)OCCO4)C(=O)C(=O)N2CCCN(C)C)c(OC)c1 (stereo not drawn)
-0.5	CC(NC(=O)COC(=O)c1ccccc1Nc1ccccc1)c1ccccc1 (stereo not drawn)
-1.8	CC(=O)N1CCc2cc(Br)cc(S(=O)(=O)NCc3ccc(Cl)cc3)c21
-0.9	CCc1c(C)nc2ncnn2c1N1CCN(S(=O)(=O)c2ccc(OC)cc2)CC1
-0.4	N#Cc1c(NCc2ccccc2)ccnc1Cl
-0.6	COc1ccc(CCNC(=O)Cc2ccsc2)cc1
-2.0	CC1CCCN(CCCNC(=O)c2ccc(N3CCCC3=O)cc2)C1 (stereo not drawn)
12	C[C@@H](NC(=O)/C(C#N)=C/c1ccc(O)c(O)c1)c1ccccc1

Following part.
STK33 inh	molecule
-3.9	CC[C@H](C)[C@@H](C(=O)NCCCCCCCCCCC(=O)N1CCNCC1)n1cc(CCCCN=C(N)N)nn1
1.8	Cc1ccccc1NC(=O)NCCCN1CCN(C2CCCCC2)CC1
-2.7	COc1ccc(-c2nc(-c3ccc(Br)cc3)no2)c(OC)c1
1.0	CC1(c2nnc(-c3ccncc3)o2)CC(c2ccccc2)=NO1 (stereo not drawn)
-1.8	CCOc1ccc(C(=O)NCC(=O)N2CCC(C)CC2)cc1OCC
-1.1	Cn1cccc1C(C#N)c1ccccc1C#N (stereo not drawn)
-1.1	O=C(NCc1ccc2c(c1)OCO2)c1ccc(COc2cccc(Cl)c2)o1
-1.2	COc1ccc(/C=N/NC(=O)c2ccn[nH]2)cc1COc1ccc([N+](=O)[O-])c(C)c1
-2.0	CSc1nc(-c2ccccc2)nc(NC(C)=O)c1C(C)=O
-1.1	O=S(=O)(c1cccc2nsnc12)N1CCN(Cc2ccccc2)CC1

Additional entries follow:
STK33 inh	molecule
0.0	O=C(Cn1nc(-c2ccccc2)ccc1=O)NCc1ccc(F)cc1
-1.7	CC(C)C[C@H](NC(=O)[C@@H](Cc1ccccc1)n1c(=O)[nH]c2ccccc2c1=O)C(=O)N[C@@H](Cc1ccccc1)C(=O)O
-0.3	Cc1cc(SCc2cccc(C(F)(F)F)c2)nc(=O)[nH]1
-1.4	Cc1ccc(C(=O)N2CCN(Cc3ccc4c(c3)OCO4)CC2)o1
0.2	NS(=O)(=O)c1cccc(NC(=O)COC(=O)/C=C/c2nc3ccccc3s2)c1
-1.3	Cc1csc(SCC(=O)Nc2cccc(S(=O)(=O)N3CCOCC3)c2)n1
-0.6	Cc1cc(Cl)c(S(=O)(=O)Nc2ccc3c(c2)OCCO3)cc1OCC(N)=O
-0.1	CCOc1ccc(S(=O)(=O)Nc2ccc(S(=O)(=O)N3CCOCC3)cc2)cc1
1.3	Cc1ccc(Cl)cc1NC(=O)C(NS(=O)(=O)c1cccs1)c1ccccc1 (stereo not drawn)
0.2	CCOC(=O)c1c(C)[nH]c(C)c1S(=O)(=O)NCCN1CCN(c2ccccc2F)CC1

Following part:
STK33 inh	molecule
-1.3	COc1cc(NC(=O)COC(=O)CO/N=C(\C)c2ccc3c(c2)OCO3)cc(OC)c1OC
-0.1	CC(C)Cn1c(-c2ccc(C#N)cc2)nc2c1c(=O)[nH]c(=O)n2CC(C)C
0.7	Cc1cc2nc(SCC(=O)Nc3ccccc3C(=O)O)[nH]c2cc1C
-0.5	O=C(CCNS(=O)(=O)c1cccc2nsnc12)NCCC1=CCCCC1
-0.9	N=c1c2c3c(sc2nc2n1CCCCC2)CCCC3
-1.0	CCn1c2ccccc2c2cc(NS(=O)(=O)c3ccccc3C)ccc21
-3.8	C=CCn1c(SCC(N)=O)nnc1-c1cc2c(s1)CCC(CC)C2 (stereo not drawn)
-1.6	COc1ccccc1NC(=O)Cc1ccsc1
-1.4	Cc1cccc(-n2ccnc2SCC(=O)N2CCCc3ccccc32)c1C
-0.9	Cc1ccccc1CN1C(=O)[C@@H]2Cc3c([nH]c4ccccc34)C(C)(C)N2C1=O

Random excerpt: 2 records from the list
STK33 inh	molecule
-1.0	CCn1c2ccccc2c2cc(NS(=O)(=O)c3ccccc3C)ccc21
-0.1	CC(C)Cn1c(-c2ccc(C#N)cc2)nc2c1c(=O)[nH]c(=O)n2CC(C)C

Remaining list, next part
STK33 inh	molecule
-1.8	COc1ccc(CC(=O)OCC(=O)NCC2CCCO2)cc1OC (stereo not drawn)
-0.9	COc1ccc(NS(=O)(=O)c2ccc(NS(=O)(=O)c3cccs3)cc2)c(OC)c1
-2.4	C=C(C)CC1(NC(C)c2ccccc2)CCCCC1 (stereo not drawn)
-0.7	CCn1c(N2CCN(S(=O)(=O)c3ccc(F)cc3)CC2)nc2ccccc21
-1.2	Cc1ccc(-c2nnn(CC(=O)N3CCCc4ccccc43)n2)cc1
-0.1	COc1ccc(Oc2nc(SC)nc3ccccc23)cc1
-1.6	Cc1ccc(NC(=O)/C(=C/c2cccs2)NC(=O)c2ccco2)cc1
0.8	Cc1[nH]c(C)c(C(=O)/C=C/c2ccc([N+](=O)[O-])cc2)c1C
-0.7	COc1ccc(CN2CCNC(=O)C2CC(=O)NCC2CCOCC2)c(C)c1C (stereo not drawn)
-0.6	NC(=O)C1CCN(C(=O)c2ccc3c(=O)n(Cc4cccc(Br)c4)c(=S)[nH]c3c2)CC1

Continuation.
STK33 inh	molecule
1.4	Cc1ccc(Cn2ccc(NC(=O)c3cc(-c4ccc(Br)cc4)on3)n2)cc1
-1.6	CC(C)(C)n1ncc2c(=O)n(CC(=O)Nc3ccccc3)cnc21
-0.3	CCc1csc(CNC(=O)C2CCC(=O)N(Cc3cccc(F)c3)C2)n1 (stereo not drawn)
-1.0	CCN1CCN(CC(=O)Nc2cc(F)ccc2C)CC1
0.0	Cn1c(CC(=O)Nc2ccccc2F)nnc1SCC(=O)Nc1nccs1
-1.1	CCCCCn1c(=O)c(Cc2ccccc2)c(O)c2ccccc21
-0.3	CCN(CC)c1ccc(NC(=O)COc2ccc(N(C)S(=O)(=O)c3cccs3)cc2)cc1
-1.5	COc1cccc(C(=O)Nc2nc3ccc(S(C)(=O)=O)cc3s2)c1
0.6	COc1ccc(C2(CNC(=O)c3cc([N+](=O)[O-])cc([N+](=O)[O-])c3)CCCC2)cc1OC
-3.0	COc1ccc(CCNC(=O)COc2ccc(S(=O)(=O)NC3CCCCC3)cc2Cl)cc1

Next compounds follow.
STK33 inh	molecule
0.3	COc1ccc(CNC(=O)C2CCN(S(=O)(=O)c3ccccc3)CC2)cc1
-0.2	COc1ccc(S(=O)(=O)N2CCCC2CNC(=O)C(=O)NCc2cccs2)cc1 (stereo not drawn)
-1.8	CCOC(=O)c1cccc(NC(=O)c2ccc3c(c2)C(=O)N(CC2CCCO2)C3=O)c1 (stereo not drawn)
0.3	CCOc1ccccc1NC(=O)c1cc(S(=O)(=O)N2CCN(CC)CC2)ccc1Cl
-0.7	O=C(Cn1cnc2cc([N+](=O)[O-])ccc2c1=O)Nc1ccc2c(c1)OCO2
0.5	OCC1(C2=NOC(O)(C(F)(F)F)C2)CCCCC1 (stereo not drawn)
-0.7	CC(Oc1ccc2c(-c3ccccc3)cc(=O)oc2c1)C(=O)NCC(O)c1ccccc1 (stereo not drawn)
0.7	COc1ccc(-c2cc(C(=O)NCCN3CCOCC3)c3ccccc3n2)c(OC)c1
-1.8	O=C1N/C(=N\S(=O)(=O)Cc2ccccc2)S/C1=C/c1cc([N+](=O)[O-])ccc1O
0.7	CCOc1ccc(CNC(=O)CCCN2C(=O)C(c3ccccc3)Oc3cccnc32)cc1 (stereo not drawn)

New compounds follow:
STK33 inh	molecule
-1.8	CC1CCCCC1N1CCN(C(=O)c2cccc(F)c2)CC1 (stereo not drawn)
0.2	COc1cccc(C(C)NC(=O)c2ccncc2)c1 (stereo not drawn)
-0.9	CCOC(=O)c1[nH]c(C)c(C(=O)Nc2ccc(C)c(Cl)c2)c1C
0.4	COc1ccc(S(=O)(=O)N2CCc3ccccc32)cc1C(=O)NCCc1ccc(S(N)(=O)=O)cc1
0.8	COc1ccc(S(=O)(=O)CCC(=O)NCCc2ccc(C)cc2)cc1
-1.4	CC(=O)N1CCC(N(CCCOC(C)C)C(=O)Nc2ccc(Cl)cc2)CC1
0.4	CCC1=C(OC(=O)N(CC)CC)N2C(=O)OC(=NCC3CC3)[C@]2(C)[C@H]2C1=CC[C@H]1C(=O)NC(=O)[C@H]12
-0.4	CCc1ccc(NC(=S)N2CCN(c3cccc(OC)c3)CC2)cc1
-2.3	Clc1cccc(-c2ccc(CNCc3ccccn3)o2)c1
0.2	Cc1nc2sc3c(O)cc(=O)[nH]c3c2c(C)c1C

Going on with the list.
STK33 inh	molecule
-0.2	CCNC(=O)CSc1nc2ccccc2c(=O)n1-c1cc(OC)ccc1OC
-1.9	O=C(COc1ccccc1[N+](=O)[O-])N/N=C/c1cccs1
-1.2	CC(C)c1nnc(NC(=O)C2CCN(S(=O)(=O)c3ccc(-n4cnnn4)cc3)CC2)s1
0.5	CC1CCN(CC(=O)Nc2ccc(N3CCCCCC3)cc2)CC1
1.7	CCn1nc(C)c(/C=N/NC(=O)Cn2nnnc2N)c1C
1.0	CC1CC1c1ccc(/C=C(\C#N)C(=O)Nc2ccc(Cl)cc2)o1 (stereo not drawn)
-0.1	CCCCn1c(N)c(N(CCC(C)C)C(=O)c2ccc(-c3ccc([N+](=O)[O-])cc3)o2)c(=O)[nH]c1=O
-1.7	COc1ccccc1CCC(=O)OCc1csc(CC(=O)Nc2ccccc2C)n1
-2.2	O=C(c1ccco1)N1CCN(Cc2nnnn2CCc2ccccc2)CC1
-0.1	Cc1nc(C(=O)N(C)C)nn1-c1cc(Cl)cc(Cl)c1

(next part)
STK33 inh	molecule
-1.2	Cn1cc(/C=C(\NC(=O)c2ccccc2Cl)C(=O)NCCN2CCOCC2)c2ccccc21
-1.1	CCc1nc2ccccc2nc1N1CCN(S(=O)(=O)c2c(C)cc(Cl)cc2C)CC1
0.0	COc1ccc(C(=O)Nc2cccc(/C(C)=N/NC(=O)c3ccc([N+](=O)[O-])cc3)c2)cc1OC
-0.8	O=C(CSc1ccc([N+](=O)[O-])cc1)OCC(=O)N1CCCC1=O
0.8	CCCCS(=O)(=O)N1CCCC(C(=O)Nc2ccc(Cl)cn2)C1 (stereo not drawn)
-0.6	COc1ccc(CSc2nnc(Cc3sc(-c4ccccc4)nc3-c3ccccc3)o2)cc1
-2.7	O=c1c2cc3c(=O)n(-c4ccccc4O)c(=O)c3cc2c(=O)n1-c1ccccc1O
-2.3	O=C1CN(C(=O)CSc2nnnn2-c2ccc(Cl)cc2)c2ccccc2N1
-0.3	CCOC(=O)c1cnc(SC)nc1Oc1cccc(NC(=O)c2ccc(C)cc2)c1

Of the compounds above, 15 have an aryl thioether with sulfur outside any ring:
STK33 inh	molecule
-0.2	CCc1c(O)nc(SCc2nc3ccccc3c(=O)[nH]2)[nH]c1=O
0.1	CCN(CC)S(=O)(=O)c1cccc(-c2nnc(SCC#N)n2Cc2ccccc2)c1
-2.0	CSc1nc(-c2ccccc2)nc(NC(C)=O)c1C(C)=O
-0.3	Cc1cc(SCc2cccc(C(F)(F)F)c2)nc(=O)[nH]1
-1.3	Cc1csc(SCC(=O)Nc2cccc(S(=O)(=O)N3CCOCC3)c2)n1
0.7	Cc1cc2nc(SCC(=O)Nc3ccccc3C(=O)O)[nH]c2cc1C
-3.8	C=CCn1c(SCC(N)=O)nnc1-c1cc2c(s1)CCC(CC)C2 (stereo not drawn)
-1.4	Cc1cccc(-n2ccnc2SCC(=O)N2CCCc3ccccc32)c1C
-0.1	COc1ccc(Oc2nc(SC)nc3ccccc23)cc1
0.0	Cn1c(CC(=O)Nc2ccccc2F)nnc1SCC(=O)Nc1nccs1
-0.2	CCNC(=O)CSc1nc2ccccc2c(=O)n1-c1cc(OC)ccc1OC
-0.8	O=C(CSc1ccc([N+](=O)[O-])cc1)OCC(=O)N1CCCC1=O
-0.6	COc1ccc(CSc2nnc(Cc3sc(-c4ccccc4)nc3-c3ccccc3)o2)cc1
-2.3	O=C1CN(C(=O)CSc2nnnn2-c2ccc(Cl)cc2)c2ccccc2N1
-0.3	CCOC(=O)c1cnc(SC)nc1Oc1cccc(NC(=O)c2ccc(C)cc2)c1
